RE007 growth inh = less growth of the S. pombe RE007 Vpr strain. S. pombe RE007 Vpr strain, BacTiter-Glo ATP luminescence, 24 h; control for the full effect not named in the record. hit rate 0.21% among 360,000. Potency, µM (top dose mostly 92.2 µM), for inactives: at the top dose activity change, negative = less growth; active = well fitted falling curve with a large enough effect; inconclusive = small, poorly fitted or top-dose-only effect; inactive = no such curve, though single readings can be large or run the other way;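 note: nearly all actives have a fitted effect of over 50% in size; the assay follows cell death caused by Vpr and the record does not say whether a fall means rescue or toxicity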
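Fission yeast RE007 carrying one integrated HIV-1 vpr copy, seeded at OD 0.01 in PMG+AL medium with 23 nL pinned compound. Grown 24 h at 30 degrees; viability read by BacTiter-Glo luminescence after 5 min.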
StopGo reporter = FMDV 2A StopGo reporter, luciferase signal; human cells with a luciferase reporter of 2A StopGo recoding; control for the full effect not named in the record; Potency, µM (titrated, usually from 57.9 µM), for the others: top-dose signal change, negative = less light; hit rate 1.2% among 410,000; active = well fitted falling curve with a large enough effect; inconclusive = small, poorly fitted or top-dose-only effect; inactive = no such curve, though single readings can be large or run the other way; tested in HEK293T cells; note: nearly all actives have a fitted effect of over 45% in size; luciferase light after 4 h
* = called active by the depositor; ? = inconclusive; & = joins results of further samples; [ ] = remark or other dose. % is set by controls: 0 for no effect and ±100 for the full control effect; potency is the fitted concentration of half-maximal effect. An excerpt; count on the stated rates, not on these rows.

SMILES	RE007 growth inh	StopGo reporter
CCOc1ccc(CCN2C(=O)C(=O)N([C@@H](Cc3ccccc3)CN3CCC[C@H]3CN3C(=O)C(=O)NC[C@@H]3Cc3ccccc3)C[C@@H]2Cc2ccccc2)cc1	15%	?
COc1ccc(CNC(=O)c2cccc3c(-c4cnn(C)c4)coc23)cc1OC	18%	16µM*
COc1ccc(-c2coc3c(C(=O)NCc4ccc(C(F)(F)F)cc4)cccc23)c(C)c1	9%[18.4 µM]	-23%
CCNC(=O)C1(C)CCCN(C(=O)c2csc3ccccc23)C1 (stereo not drawn)	4%	4%
C[C@@H]1CN([C@H](C)CO)S(=O)(=O)c2ccc(Br)cc2O[C@@H]1CN(C)C(=O)Nc1ccc(C(F)(F)F)cc1	7%	-18%
CN(CCc1ccccc1)C(=O)c1cccc(NC(=O)Cc2cccc(NC(=O)C3CCN(C(=O)c4ccccc4)CC3)c2)c1	4%	?
O=C(Nc1nnc([C@H]2C[C@H](O)[C@@H](CO)O2)s1)C(c1ccccc1)c1ccccc1	1%	-13%
CCCOc1ccc(F)cc1-c1cc(C(=O)NCc2ccco2)[nH]n1	7%	-15%
CN1C=Nc2c(ncn2C2CCC(CO)O2)C1O (stereo not drawn)	6%	-18%
CCCCNc1c(-c2ccccn2)nc2nc(C)cc(C)n12	-19%	-20%
CC(=O)Nc1ccc(NC(=O)c2ccc3sc([C@H]4C[C@H](O)[C@@H](CO)O4)nc3c2)cc1	-5%[18.4 µM]	-11%
Cc1ccccc1-c1csc(C(O)c2cccc(Cl)c2)n1 (stereo not drawn)	1%[18.4 µM]	5%
O=c1[nH]cc(S(=O)(=O)N2CCN(c3ccc(F)cc3)CC2)c(=O)[nH]1	3%	-18%
Cc1ccc(NC(=O)CSCC(=O)N(C)Cc2c(F)cccc2Cl)cc1	-5%	-6%
N#Cc1ccccc1C[C@H](N)C(=O)NC[C@H]1O[C@@H](n2ccc(N)nc2=O)[C@H](O)[C@@H]1O	6%	-7%
O=C(Nc1ccn(CCCN2CCN(c3ccccc3)CC2)c(=O)n1)OCc1ccccc1	-16%	?
CN1OC[C@@H]2CN(S(=O)(=O)c3cccc4ccccc34)[C@H](c3ccc(-c4ccccc4)cc3)C[C@@H]21	7%	-23%
CC1(C(=O)NS(=O)(=O)c2ccc(Cl)s2)CCN1C(=O)c1ccccc1CCc1ccccc1 (stereo not drawn)	6%[18.4 µM]	-1%
Cc1ccc(Cc2c(-c3ccc(C#N)cc3)nc3c4ccccc4ccn23)cc1	-18%	38%[activator]
C[C@@H]1CN([C@H](C)CO)C(=O)CCCn2nncc2CO[C@@H]1CN(C)S(=O)(=O)c1cccc(C#N)c1	34%	-12%
CC1(C(=O)Nc2cccc(C(F)(F)F)c2)Cc2c(-c3ccc4c(c3)OCO4)ccnc2O1 (stereo not drawn)	-14%	-15%
CC(=O)N1CCCC(C)(C(=O)Nc2ccc3nc(C)ccc3c2)C1 (stereo not drawn)	-21%	-18%
O=C1NCN(c2ccccc2)C12CCN(C(c1cccc3ccccc13)c1nnnn1Cc1ccccc1)CC2 (stereo not drawn)	7%	-8%
COC(=O)C[C@H]1CC[C@H](NC(=O)Cc2ccccc2)[C@@H](CO)O1	11%	-12%
NC(Cc1ccc(F)cc1)c1csc(Nc2nccc(C(F)(F)F)n2)n1 (stereo not drawn)	-26%[18.4 µM]	-21%
C=CC[C@@]12C=C(OC)C(=O)C(OC)=C1O[C@H](c1ccc3c(c1)OCO3)[C@H]2C	2%	-24%
COc1ccc(-c2ccc(N3C(c4ccsc4)=Cc4ccc(F)cc4C3c3c[nH]c4ccccc34)cc2)cc1 (stereo not drawn)	3%	-6%
COc1ccccc1CN(C)C[C@H]1OCc2cnnn2CCCC(=O)N([C@H](C)CO)C[C@@H]1C	-4%	-20%
COCCn1c(N)c(N(Cc2ccccc2)C(=O)C(C)Oc2ccc(Br)cc2)c(=O)[nH]c1=O (stereo not drawn)	-15%	-19%
COc1ccc(-c2cc(NC=O)c3ncc(-c4cccc(C(F)(F)F)c4)n3c2)c(OC)c1	-8%	?
COc1ccc(CN(CCCn2cnc3c(OC)ncnc32)CCCn2cnc3c(OC)ncnc32)cc1	5%	-23%
COC(=O)[C@@]12C[C@@H](CC(=O)NCc3ccccc3)C(=O)N(Cc3ccc4c(c3)OCO4)C1=CCC(C)(C)C2	-9%	-18%
CN(Cc1ccccc1)C(=O)C(=O)c1c[nH]c2ccccc12	-15%	52%[activator]
Cc1cc(C(=O)CN2C(=O)NC(C)(c3ccc(F)c(F)c3)C2=O)c(C)n1C1CC1 (stereo not drawn)	13%	?
C[C@@H]1CN([C@H](C)CO)C(=O)c2c(c3ccccc3n2C)-c2ccccc2CO[C@H]1CN(C)Cc1ccc(C(F)(F)F)cc1	-4%	?
C=CCNc1cccc(Br)c1	3%	-5%
CC1=C(C(=O)N(C(C)C)C(C)C)CC(CC(=O)NCc2cccc3ccccc23)C(=O)N1Cc1ccc(C(C)(C)C)cc1 (stereo not drawn)	27%	-21%
CC(C)C[C@H]1CNC(=S)N1C[C@H]1CCCN1C[C@H](Cc1ccc(O)cc1)N1C[C@H](Cc2ccccc2)N(CCc2ccccc2)C1=S	-7%	-8%
CCC[C@@H]1C=C(C(=O)OCC)[C@H](c2ccccc2)N1S(=O)(=O)c1ccc(C)cc1	5%	-12%
COCCNC(=O)C1CCCN(C(=O)/C=C/c2ccccc2)CC1 (stereo not drawn)	4%[18.4 µM]	-12%

Part of the list above in order of molar mass, largest number first.
SMILES	RE007 growth inh	StopGo reporter
COc1ccc(-c2ccc(N3C(c4ccsc4)=Cc4ccc(F)cc4C3c3c[nH]c4ccccc34)cc2)cc1 (stereo not drawn)	3%	-6%
CC1(C(=O)Nc2cccc(C(F)(F)F)c2)Cc2c(-c3ccc4c(c3)OCO4)ccnc2O1 (stereo not drawn)	-14%	-15%
CCC[C@@H]1C=C(C(=O)OCC)[C@H](c2ccccc2)N1S(=O)(=O)c1ccc(C)cc1	5%	-12%
NC(Cc1ccc(F)cc1)c1csc(Nc2nccc(C(F)(F)F)n2)n1 (stereo not drawn)	-26%[18.4 µM]	-21%
COC(=O)C[C@H]1CC[C@H](NC(=O)Cc2ccccc2)[C@@H](CO)O1	11%	-12%
C=CCNc1cccc(Br)c1	3%	-5%

New compounds follow
SMILES	RE007 growth inh	StopGo reporter
CC1Cc2ccccc2N1C(=O)Cn1cc(C(F)(F)F)ccc1=O (stereo not drawn)	-12%	0%
Cc1cccc(C)c1Cn1c(C)c(C(=O)NCc2ccc([N+](=O)[O-])cc2)sc1=O	1%[18.4 µM]	0%
Cc1noc(C)c1CCC(=O)Nc1cc(C(=O)O)ccc1Cl	-1%	0%
C[C@@H]1CCCCO[C@H](CN(C)Cc2ccc(C(=O)O)cc2)[C@@H](C)CN([C@H](C)CO)C(=O)c2cc(N(C)C)ccc2O1	0%	-3%
CCCCC(=O)N(C)c1c(C)nc2ccc(C(=O)N(C)Cc3ccco3)cn12	-4%	-17%
Brc1cccc(-c2nc3ccc(Br)cn3c2Cc2ccccc2)c1	-7%	11%
COc1cc(CNC(=O)c2cc(-c3cc(F)ccc3OCC3CCCO3)n[nH]2)cc(OC)c1 (stereo not drawn)	-2%	-25%
CC(O)(c1ccc(F)c(F)c1)c1nc(-c2cccc(C(=O)O)c2)cs1 (stereo not drawn)	0%	38%[activator]
C[C@H](CO)N1C[C@H](C)[C@@H](CN(C)Cc2cccc3c2OCCCO3)OCc2cnnn2CCCC1=O	-5%	1%
CCCCCCn1c(=O)n2n(c1=O)[C@@H]1CN(S(=O)(=O)c3ccc(C)cc3)C[C@]1(O)[C@@H](OC(=O)NCc1ccco1)C2	-3%	?
CN(C(=S)NC(=O)C1CCCC1)c1ccccc1	-1%	34%[activator]
COC(=O)c1ccc(CSc2ccccc2NC(=S)Nc2cccc(SC)c2)o1	5%	30%
C#CCN(C[C@H]1[C@H](OC(=O)NCC2CCCCC2)[C@H](OC(=O)NCC2CCCCC2)C[C@H]2C(=O)N(c3ccccc3)C(=O)[C@@H]12)S(=O)(=O)c1ccc(C)cc1	-2%	-28%
CCOC(=O)C1=C[C@@H](CC)N(S(=O)(=O)c2ccc(C)cc2)[C@H]1c1ccccc1	-16%	-30%
CC1CC2CCCC(O)=C2C(=O)O1 (stereo not drawn)	2%	-27%
c1ccc(CSc2nccc(-c3ccco3)n2)cc1	-30%	47%[activator]
CC1(c2nnc(Cc3ccccc3)o2)CC(c2ccc(Br)cc2)=NO1 (stereo not drawn)	-17%	-1%
COc1ccc(CN(C)C(=O)/C=C/[C@H]2O[C@@H](n3cc(C)c(=O)[nH]c3=O)C[C@@H]2O)cc1OC	2%	-14%
O=c1[nH]c2ccccc2n1C1CCN(C(c2nnnn2-c2ccc3c(c2)OCCO3)C2CC2)CC1 (stereo not drawn)	3%	-19%
O=C(NCCN1CCC(n2c(=O)[nH]c3ccccc32)CC1)c1ccc(F)c(F)c1	2%	-27%

Shown with values under each structure: part of the list above
The line under a structure holds: RE007 growth inh | StopGo reporter
CN(C(=S)NC(=O)C1CCCC1)c1ccccc1
 : -1% | 34%[activator]
COC(=O)c1ccc(CSc2ccccc2NC(=S)Nc2cccc(SC)c2)o1
 : 5% | 30%

Going on with the list:
SMILES	RE007 growth inh	StopGo reporter
COc1ccccc1-c1cc(NC=O)c2ncc(-c3cccc(C(C)=O)c3)n2c1	11%	-27%
O=c1oc2cc(O)ccc2cc1-c1nc2ccccc2o1	-9%	41%[activator]
CCC1Oc2ccccc2N(CC(=O)N2CCCC2)C1=O (stereo not drawn)	-20%	-10%
COc1ccc(S(=O)(=O)N2CCN(C(=O)C3CC(=O)N(c4ccccc4F)C3)CC2)cc1OC (stereo not drawn)	12%	-4%
CCCCNC(=O)C1(C)CCN1C(=O)c1oc2ccccc2c1C (stereo not drawn)	8%[18.4 µM]	-10%
CCC(Oc1ccccc1)C(=O)OCC(=O)Nc1c(C)nn(-c2ccccc2)c1C (stereo not drawn)	-6%	-17%
C[C@H](CO)N1C[C@H](C)[C@H](CN(C)S(=O)(=O)c2ccc(-n3cccn3)cc2)OCc2cnnn2CCCC1=O	0%	-3%
CCCc1nc2ccc(Cl)cn2c1Cc1ccccc1	-26%	16%
CCCCCCn1cc(CN2CC(N(C)C)CS2(=O)=O)nn1 (stereo not drawn)	-7%	-18%
COc1ccccc1Cc1c(-c2ccco2)nc2cc(C)c(Br)c(C)n12	-10%	?
C[C@@H]1Cn2cnc(C(=O)NCC(=O)OC(C)(C)C)c2C(=O)N1	-4%	-21%
Cc1ccsc1-c1cc2nc(Nc3ccc(F)cc3)n(C)c(=O)c2s1	2%	67%[activator]
COc1cccc(C=C2Cc3ccccc3C2=O)c1	?	72%[activator]
COc1ccccc1-c1noc2c1C(=O)N(Cc1cn(C3CCCC3)nn1)CC2	4%	-17%
COC(=O)CCCn1cc(CN2CC(N3CCCC3)CS2(=O)=O)nn1 (stereo not drawn)	2%	-13%
COc1ccc(CN2C(=O)C(CC(=O)NCc3ccco3)CC(C(=O)N(C(C)C)C(C)C)=C2C)cc1 (stereo not drawn)	6%	8%
CCOC(=O)C1(C)CCCN(C(=O)c2ccc(OC)cc2)C1 (stereo not drawn)	2%	-11%
O=[N+]([O-])c1ccc(S(=O)(=O)Nc2ccc(-c3ccccc3)cc2)cc1	35µM*	20%
CNC[C@H]1Oc2cc(Br)ccc2S(=O)(=O)N([C@@H](C)CO)C[C@H]1C	-8%	4%
COc1cccc(-c2cnc(C(O)c3ccc(C)cc3C)[nH]2)c1 (stereo not drawn)	6%	18%
CCCCN(C=O)c1c(CC)nc2c(OCc3ccccc3C(=O)OC)cccn12	-18%[18.4 µM]	0%
N#Cc1ccc(-c2ccc3nccn3c2)cc1	5%	13%
COc1cccc(C2CC(OCCF)=CC(=O)O2)c1 (stereo not drawn)	35%	6%
CCOC(=O)Nc1ccc(S(=O)(=O)N2CCC(c3nc4ccccc4[nH]3)CC2)cc1	5%	0%
O=C1c2ccccc2C(c2nnnn2-c2ccc3c(c2)OCCO3)N1Cc1cccc(F)c1 (stereo not drawn)	-1%&3%	3%&9%
COc1cc(F)ccc1-c1cc(C(=O)Nc2ccc(C)c(NS(C)(=O)=O)c2)[nH]n1	-9%	25µM*
CC(C)NC(=O)N(C)C[C@@H]1Oc2cc(Br)ccc2S(=O)(=O)N([C@@H](C)CO)C[C@H]1C	-1%	14%
CN(Cc1ccccc1)C(=O)c1[nH]c(C(F)(F)F)nc1-c1ccccc1	-6%	4%
Nc1nc2c(Br)ccc(Br)c2cc1C(=O)NCc1cccc2ccccc12	4%	-25%
O[C@H]1C[C@H](c2ccc(Cl)cc2)N(Cc2cccs2)C[C@@H]1n1cc(C2CC2)nn1	?	-1%
NC(c1ccccc1)c1csc(Nc2cc(Oc3ccccc3)ncn2)n1 (stereo not drawn)	-13%	-29%
O=C(COC(=O)Cc1ccccc1F)NCc1ccccc1Cl	6%	13%
C[C@H](CO)N1C[C@H](C)[C@@H](CN(C)Cc2ccncc2)OCc2cnnn2CCCC1=O	-24%	-17%
O=C1c2ccccc2C(c2nnnn2Cc2ccccc2)N1Cc1cccs1 (stereo not drawn)	5%&2%	9%&7%
O=C(Nc1ccccc1)C1=C[C@H](c2ccccc2)C[C@H](OCCCCO)O1	-4%	0%
COCCNc1nc2cc(-c3ccc(C)cc3)sc2c(=O)n1C	-13%[18.4 µM]	52%[activator]

Assay outcomes: PubChem, National Center for Advancing Translational Sciences (NCATS)
